Screening data deposited in PubChem by National Center for Advancing Translational Sciences (NCATS).
VACV mCherry inh – qHTS for Stage-Specific Inhibitors of Vaccinia Orthopoxvirus: mCherry Reporter Primary qHTS; Vaccinia virus mCherry reporter infection, fluorescence; about a quarter of the inactives have no number; Potency, µM (doses to about 36.5 µM), for inactives: top-dose activity change, negative = inhibition, most hits filed as inhibitors; 310,000 tested, 0.63% active; AID 720579, 2013; active = well fitted inhibition curve with a large enough effect; inconclusive = small, poorly fitted or top-dose-only effect; inactive = no such curve, though single readings can be large or run the other way; tested in A549 cells; further: nearly all actives have a fitted effect of over 35% in size; inactives centre near -10
Vaccinia Venus – qHTS for Stage-Specific Inhibitors of Vaccinia Orthopoxvirus: Venus Reporter Primary qHTS; Vaccinia virus Venus reporter expression, fluorescence; AID 720580, 2013; Potency, µM (highest dose often 36.5 µM), for inactives: at the highest dose activity change, negative = inhibition, most hits filed as inhibitors; 330,000 tested, 0.46% active; active means well fitted inhibition curve with a large enough effect; inconclusive means small, poorly fitted or top-dose-only effect; inactive means no such curve, though single readings can be large or run the other way; tested in A549 cells; further: nearly all actives have a fitted effect of over 30% in size; inactives centre near -10
Numbers without * were called inactive; i = inactive; ? = inconclusive; / = no result given; [ ] = another dose, or the depositor's remark. On the % scale 0 is the no-effect control and ±100 the full control effect; potency means the concentration at half of the fitted maximal effect.

SMILES	VACV mCherry inh	Vaccinia Venus
CCOc1ccccc1CNCCc1ccc2c(c1)OCO2	-23%	-18%
C[C@@H]1CN([C@@H](C)CO)C(=O)c2cc(Br)cnc2O[C@H]1CN(C)Cc1ccc(-c2ccccc2)cc1	-10%	-14%
O=C(Cn1cc2c(n1)CCCC2)N1CCCc2ccccc21	-4%	-12%
COc1cc(C)c2c(=O)cc(-c3ccccc3)oc2c1	-16%	-16%
COc1ccccc1CNC(=O)C(C)NS(=O)(=O)c1ccc(Br)cc1 (centres undefined)	/	-22%
CCc1ccc(C2N(c3ccc(OC)cc3)C(=O)C3CCCN32)cc1 (centres undefined)	-7%	-7%
COC(=O)c1cc(NC(=O)c2cccc([N+](=O)[O-])c2C)ccc1Cl	-23%	-16%
COc1ccc(-c2cc(C(=O)N3CCc4ccccc4C3)no2)cc1OC	-9%	-8%
N#Cc1c(NC(=O)CN2CCOCC2)oc(-c2ccccc2)c1-c1ccccc1	/	-17%
Cc1noc(-c2ccc(-c3noc(-c4ccc([N+](=O)[O-])c(C)c4)n3)cc2)n1	-14%	4%
COc1ccc(C(C)C)cc1S(=O)(=O)N1CCN(C)CC1	-16%	-11%
Cc1ccc(-n2c(N)cc(=O)nc2SCC(=O)N2CCN(c3ccccc3)CC2)cc1	-13%	-8%
CC(Sc1nnc(-c2cccnc2)n1-c1ccccc1)C(=O)NCc1ccc2c(c1)OCO2 (centres undefined)	-3%	-11%
COc1ccccc1-c1nnc(SCC(=O)NC2CCCCC2)n1N	-18%	-9%
Cc1[nH]c2ccccc2c1C(=O)C(=O)NC1CC(=O)N(c2cccc(F)c2)C1 (centres undefined)	-12%	-3%
CN(C)CCC(=O)NCC1OCCc2ccccc21 (centres undefined)	/	-15%
Cc1cc(C)c(NC(=O)c2ccoc2C)c(C)c1	-15%	-10%
O=C(/C=C/c1cccs1)N1CCC2(CC1)Oc1ccc(Cl)cc1C(=O)C21CC(c2cccnc2)=NO1 (centres undefined)	-13%	-11%
COc1ccc(S(=O)(=O)Nc2cccc3c2O[C@H](CN(C)CC2CCCCC2)[C@@H](C)CN([C@H](C)CO)C3=O)cc1	i	-8%
COc1ccc(NC(=O)CSc2nc(N)c3cc4c(nc3n2)CC(C)(C)OC4)cc1	-6%	-8%
CCC(C(=O)Nc1ccc(C(=O)OC)cc1)n1nc(-c2ccc(C)c(C)c2)ccc1=O (centres undefined)	-12%	-2%
CC(=O)Nc1ccccc1NC(=O)c1cc(C)cc(C)c1	4%	-3%
C[C@H](NC(=O)c1nc[nH]c1C(=O)N[C@@H](Cc1ccccc1)C(=O)OCc1ccccc1)C(=O)OC(C)(C)C	i	-12%
CCCn1nc(C(=O)Oc2ccc3c(C)cc(=O)oc3c2)c2ccccc2c1=O	-12%	-6%
CCc1ccccc1NC(=O)CSc1nnc(COc2ccccc2Cl)o1	-9%	3%
CCOC(=O)C1CCCN(C(=O)Nc2cccc(Cl)c2)C1 (centres undefined)	i	-8%
CCN(C(=O)c1ccc(C(=O)N(CC)c2ccccc2C)cc1)c1ccccc1C	-11%	-6%
Cc1c(Cc2c(C)n(C)n(-c3ccccc3)c2=O)c(=O)n(-c2ccccc2)n1C	i	-6%
CCOC(=O)CNC(=O)c1ccc2[nH]c3c(c2c1)CCCC3	-19%	-16%
Cc1cc(C)nc(N(C#N)CCOc2ccccc2)n1	-18%	-16%
O=C(NCC(=O)N1CCCC(C(F)(F)F)C1)c1ccccc1F (centres undefined)	i	-10%
CCOc1ccccc1OCCCCOc1ccccc1F	-15%	-2%
CC(=O)Nc1ccc(NC(=O)c2ccc(COc3ccc(C)cc3)o2)cc1	-18%	-7%
NC(=O)C1CCCN(Cc2ccc3c(c2)CN(Cc2cn[nH]c2-c2ccc(F)cc2)CCO3)C1 (centres undefined)	-19%	-17%
Cc1ccc(S(=O)(=O)NCCNC(=O)c2ccccc2)cc1	/	-13%
CCOC(=O)C1=Nc2ccccc2C1=[N+]=[N-]	?	?
O=C1c2ccccc2C(=O)N1CCn1c(=O)oc2ccccc21	-1%	-4%
O=C(Nc1ccnn1C1CCN(C/C=C/c2ccccc2)CC1)c1ccccc1	-2%	-13%
CCOC(=O)N1CCC(N2Cc3cccc(C(=O)Nc4ccc(S(=O)(=O)N(CC)CC)cc4)c3C2=O)CC1	-17%	-8%
CCOc1ccc(S(=O)(=O)NCCC(=O)Nc2ncccc2C)cc1	i	-11%
CCN(CC)CCNC(=O)c1ccc(NC(=O)/C=C/c2cc(OC)c(OC)c(OC)c2)cc1	-9%	-11%
CCCSc1nnc2c(n1)OC(c1cccs1)Nc1ccc(Br)cc1-2 (centres undefined)	-8%	5%
CCCSc1nn2c(=O)c3ccccc3nc2s1	/	-22%
Cc1ccc(NC(=O)N2CCc3c([nH]c4ccccc34)C2c2ccccc2F)c(Cl)c1 (centres undefined)	-12%	-9%
COc1ccc(-c2nc3cc(C)ccn3c2NC(=O)c2cccc(F)c2)cc1	-13%	-11%
O=C(Nc1nnc(-c2ccc(Cl)cc2)o1)C1CCCCC1	-21%	-10%
Cc1ccc(Nc2c3c(nc4ccccc24)CCC3)cc1	-12%	-17%
Cn1ccsc1=NC(=O)c1cc(S(=O)(=O)N2CCOCC2)ccc1Cl	-18%	-10%
COc1cc(NC(=O)CCn2c(=S)[nH]c3ccccc3c2=O)cc(OC)c1OC	i	-7%
COc1ccc(NC(=O)CSC2=Nc3ccccc3C3=NC(CCC(=O)NCc4ccco4)C(=O)N23)cc1 (centres undefined)	-22%	-14%
Further entries:
SMILES	VACV mCherry inh	Vaccinia Venus
Cc1c(N2C(=O)c3ccc(F)cc3C2=O)c(=O)n(-c2ccccc2)n1C	1%	9%
Cc1cc(NC(=O)C2CC(=O)N(c3ccccc3Cl)C2)no1 (centres undefined)	10%	-9%
O=C(N/N=C/c1ccc(C(F)(F)F)cc1)c1ccncc1	-15%	-19%
CCOCC(=O)N1CCN(c2cccc(Cl)c2)CC1	-10%	-5%
O=C(C1CCCN(S(=O)(=O)c2cccc3nsnc23)C1)N1CCc2ccccc21 (centres undefined)	-23%	-30%
CCOC(=O)C1(CCc2ccccc2)CCN(C(=O)c2occc2C)CC1	i	-8%
O=C(CSc1nnc(C2CC2)n1-c1ccccc1)NCCc1ccc(F)cc1	/	-4%
CCCSc1ncc(Cl)c(C(=O)N(Cc2ccc(Cl)cc2)Cc2ccco2)n1	-22%	-28%
Cn1cc(CCNC(=O)CCc2nnc(CCCCc3ccccc3)o2)cn1	-2%	-2%
O=C(O)C1CCN(c2ccc(S(=O)(=O)N3CCC(C(=O)O)CC3)cc2[N+](=O)[O-])CC1	-11%	-10%

Rewritten with values under each structure: part of the list above.
The line under a structure holds: VACV mCherry inh | Vaccinia Venus
CCCSc1nnc2c(n1)OC(c1cccs1)Nc1ccc(Br)cc1-2 (centres undefined)
→ -8% | 5%
CCCSc1nn2c(=O)c3ccccc3nc2s1
→ / | -22%
Cc1ccc(NC(=O)N2CCc3c([nH]c4ccccc34)C2c2ccccc2F)c(Cl)c1 (centres undefined)
→ -12% | -9%
COc1ccc(-c2nc3cc(C)ccn3c2NC(=O)c2cccc(F)c2)cc1
→ -13% | -11%
O=C(Nc1nnc(-c2ccc(Cl)cc2)o1)C1CCCCC1
→ -21% | -10%
Cc1ccc(Nc2c3c(nc4ccccc24)CCC3)cc1
→ -12% | -17%
Cn1ccsc1=NC(=O)c1cc(S(=O)(=O)N2CCOCC2)ccc1Cl
→ -18% | -10%
COc1cc(NC(=O)CCn2c(=S)[nH]c3ccccc3c2=O)cc(OC)c1OC
→ i | -7%
COc1ccc(NC(=O)CSC2=Nc3ccccc3C3=NC(CCC(=O)NCc4ccco4)C(=O)N23)cc1 (centres undefined)
→ -22% | -14%
Cc1c(N2C(=O)c3ccc(F)cc3C2=O)c(=O)n(-c2ccccc2)n1C
→ 1% | 9%
Cc1cc(NC(=O)C2CC(=O)N(c3ccccc3Cl)C2)no1 (centres undefined)
→ 10% | -9%
O=C(N/N=C/c1ccc(C(F)(F)F)cc1)c1ccncc1
→ -15% | -19%
CCOCC(=O)N1CCN(c2cccc(Cl)c2)CC1
→ -10% | -5%
O=C(C1CCCN(S(=O)(=O)c2cccc3nsnc23)C1)N1CCc2ccccc21 (centres undefined)
→ -23% | -30%
CCOC(=O)C1(CCc2ccccc2)CCN(C(=O)c2occc2C)CC1
→ i | -8%
O=C(CSc1nnc(C2CC2)n1-c1ccccc1)NCCc1ccc(F)cc1
→ / | -4%
CCCSc1ncc(Cl)c(C(=O)N(Cc2ccc(Cl)cc2)Cc2ccco2)n1
→ -22% | -28%
Cn1cc(CCNC(=O)CCc2nnc(CCCCc3ccccc3)o2)cn1
→ -2% | -2%
O=C(O)C1CCN(c2ccc(S(=O)(=O)N3CCC(C(=O)O)CC3)cc2[N+](=O)[O-])CC1
→ -11% | -10%

Remaining list, next part.
SMILES	VACV mCherry inh	Vaccinia Venus
CCCc1c(-c2cccc(Cl)c2)ncn1Cc1cccc(-c2ccccc2)c1	-28%	-19%
Cc1ccc(S(=O)(=O)N2[C@@H](c3ccc(Cl)cc3)C(C(=O)O)=CC[C@H]2c2cccs2)cc1	-4%	?
N#Cc1c(SCC(=O)Nc2ccccc2C(F)(F)F)sc2c(O)cc(=O)[nH]c12	-25%	-7%
Cc1c(C(c2cccc(O)c2)c2c(C)n(C)n(-c3ccccc3)c2=O)c(=O)n(-c2ccccc2)n1C	-9%	-3%
Cc1ccc(C(=O)NCCc2csc(-c3cccnc3)n2)cc1	-16%	-6%
S=c1[nH]nc(Cc2noc3ccccc23)n1-c1ccc(Cl)cc1	-7%	-6%
Cc1cc(C)nc(NS(=O)(=O)c2ccc(NC(=O)CSc3nc(-c4ccccc4)c(C#N)c(=O)[nH]3)cc2)n1	i	-4%
COc1ccc(CCNC(=O)CCc2c(C)nc3nc(C)nn3c2C)cc1OC	-5%	-5%
NC(=O)C1C2CCC(C2)C1C(N)=O (centres undefined)	-9%	-12%
CC(=O)Oc1ccc2c(c1)CCC1C2CC[C@]2(C)C(=O)CCC12 (some centres undefined)	-2%	-2%
CCCCNC(=O)C[C@@H]1C[C@@]2(C(=O)OCC)CCC=C2N(Cc2ccco2)C1=O	i	-8%
COc1ccc(-n2c(C)nnc2SCC(=O)N2CCOCC2)cc1	-21%	-12%
CCC(NC(=O)C1CCC1)c1ccc(C)cc1 (centres undefined)	-8%	-6%
O=C(NNC1=C(C(=O)C(F)(F)F)CCC1)c1ccncc1	4%	-5%
CN(CC(=O)Nc1ccc(N2CCOCC2)cc1)Cc1c(O)ccc2ccccc12	-10%	-4%
COc1ccc(C(=O)N=c2sc3ccccc3n2C)cc1	-6%	-16%
COc1ccc(-c2noc(CCC(=O)N(C)c3cccc(C)c3)n2)cc1	-15%	-7%
O=S(=O)(c1ccc2c(c1)OCO2)N1CCN(c2nc(-c3cccs3)nc3ccccc23)CC1	i	-19%
Cc1cccc(OCCNC(=O)c2ncn[nH]2)c1	-17%	-5%
Cc1nnc(SCc2nnc(-c3ccccc3Br)o2)n1-c1ccccc1	-1%	-5%
CC1CCC(NC(=O)C2CCC(CNS(=O)(=O)c3cccc4nsnc34)CC2)CC1 (centres undefined)	-2%	-18%
COc1ccc(COC(=O)c2sc3nc4n(c(=O)c3c2C)CCC4)cc1	-8%	-14%
Cc1cc(C)n2c(Nc3ccc4c(c3)OCCO4)c(-c3ccc(Cl)cc3)nc2n1	i	-6%
Cc1nc2cc(C(F)(F)F)ccc2n1CCNc1nc(-c2cc(Cl)c(N)c(Cl)c2)cs1	-8%	-22%
Cc1ccc(S(=O)(=O)NCCC(=O)Nc2ccc(S(=O)(=O)NC(C)C)cc2)cc1	-19%	-14%
CCOc1ccc(NC(=O)C2CCCN(S(=O)(=O)c3ccc4c(c3)CC(C)N4C(C)=O)C2)cc1 (centres undefined)	-11%	-7%
O=C(CSc1nnc(Cc2ccccc2)o1)NCCc1ccccc1	0%	-13%
CN1CCN(C(c2ccc(F)cc2)c2sc3nc(-c4ccco4)nn3c2O)CC1 (centres undefined)	-5%	0%
Cc1ccc(N(CC(O)Cn2c3ccccc3c3ccccc32)S(=O)(=O)c2ccc(F)cc2)cc1 (centres undefined)	-1%[7.34 µM]	-3%[7.34 µM]
COc1ccc(-c2nc(SCC(=O)NCCCc3ccccc3)n[nH]2)cc1	-20%	-22%
Cc1ccccc1NC(=O)C1CCN(C(=O)NC2CCCCC2)CC1	-12%	-6%
CCC(=O)N1CCN(c2ccnc3cc(Cl)ccc23)CC1	-4%	-24%
COc1ccc(S(=O)(=O)Nc2cccc(N(C)S(C)(=O)=O)c2)cc1Br	-8%	-21%
O=C(O)c1ccc(Oc2ccc([N+](=O)[O-])cc2)c([N+](=O)[O-])c1	-22%	-6%
CCOc1ccc(CNC(=O)CCS(=O)(=O)c2cc3c4c(c2)CCN4C(=O)CC3)cc1	-11%	4%
CCOCCn1c(CN2CCC(Cc3ccccc3)CC2)nc2c1c(=O)n(C)c(=O)n2C	i	-7%
O=C(N1CCOCC1)N1CCN(c2ccccc2)CC1	-7%[1.46 µM]	-10%
Clc1cccc(-c2nc(NCCCN3CCOCC3)c3ccccc3n2)c1	i	-27%
O=C(O)C1=CC(c2ccc(Br)cc2)n2ncnc2N1 (centres undefined)	-3%	-7%
Cc1cc2oc(=O)cc(CN3CCN(Cc4ccccc4)CC3)c2cc1Cl	-14%	-14%
COc1ccc(C(O)c2ncc(-c3cccc(F)c3)[nH]2)cc1F (centres undefined)	5%	-3%
C=CC1=C2C=C(C3CC3)N(CC3CC3)C=C2C(=O)C(C)(OC(=O)c2ccco2)C1=O (centres undefined)	i	-8%
